Bioassay records from PubChem.
Mtb MbtI inh = blocks the Mycobacterium tuberculosis siderophore enzyme MbtI; actives 0.89% (n = 100,000); inhibition, %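 (about 17 µg/mL by stock and volumes)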; P9WFX0; purified MbtI enzyme, fluorescence intensity read-out;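 active means above 50% in both replicates, above 80% if mildly self-fluorescent; inactive means the rest, strongly fluorescent compounds included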;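 further: 0% = mean of negative and 100% = mean of positive controls; one replicate is shown; some compounds called inactive have numbers as strong as hits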
Target sequence (P9WFX0 whole entry, looked up): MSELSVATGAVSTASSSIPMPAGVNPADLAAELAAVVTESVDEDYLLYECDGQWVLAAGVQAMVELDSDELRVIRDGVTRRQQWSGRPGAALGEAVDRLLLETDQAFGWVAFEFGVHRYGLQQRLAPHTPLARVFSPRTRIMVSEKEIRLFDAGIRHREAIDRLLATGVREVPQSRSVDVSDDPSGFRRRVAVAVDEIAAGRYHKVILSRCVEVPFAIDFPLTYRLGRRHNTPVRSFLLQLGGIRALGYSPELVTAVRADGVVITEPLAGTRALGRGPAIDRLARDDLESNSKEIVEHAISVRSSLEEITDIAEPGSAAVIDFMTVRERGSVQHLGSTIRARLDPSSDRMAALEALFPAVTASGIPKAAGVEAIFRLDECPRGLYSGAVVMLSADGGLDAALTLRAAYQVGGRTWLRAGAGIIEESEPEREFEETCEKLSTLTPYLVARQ
Starred values were filed as active, the others as inactive.

Molecule,Mtb MbtI inh
CC(=O)N1CCc2ccccc21,-12
Cc1ccc(-n2c(C)cc(/C=N/O)c2C)cc1,1
CC(=O)Nc1ccc(S(=O)(=O)N2CCCC(CO)C2)cc1 (configuration not stated),-15
Cc1cc(C)c2c(=O)[nH]c(SCC(=O)O)nc2n1,-22
CC(=O)OC(CN1CCCC1)C(C)(C)C (configuration not stated),8
c1ccc(CNCc2ccco2)cc1,-12
CSCn1c(C)nc2ccccc21,-11
CC(=O)NC1C(=O)Nc2c(C)cc(C)cc21 (configuration not stated),-11
CC1SC(c2ccc(Cl)cc2)NC1=O (configuration not stated),57
O=C(NCc1ccco1)c1cccc(COc2ccccc2Br)c1,8
CCN(CC)CCn1nc2c3c(cccc3c1=O)-c1ccccc1-2,-7
COC(=O)CNC(=O)c1cc(-c2ccccc2)nc2ccccc12,42
O=C(Oc1ccc(Cl)cc1)c1ccc2nsnc2c1,1
CC(C)(C#N)NC(=O)c1ccco1,-8
CC(NC(=O)CSCc1cccs1)c1ccccc1 (configuration not stated),14
Cc1cc2ccccc2c(=O)n1CC(=O)NCC(=O)NCC1COc2ccccc2O1 (configuration not stated),-6
N=c1c2c3c(sc2ncn1CCCn1ccnc1)CCCC3,-12
Cc1nc(SCc2ccc(C(=O)O)cc2)nc2c1CCCC2,-10
CC12CCC(C(C)(C)O)C(CC(=O)O1)C2 (configuration not stated),-2
O=C(Nc1nsc(-c2ccccc2)n1)c1ccc2ncsc2c1,-5
CN1CCc2nc(SCc3cccnc3)c(C#N)cc2C1,-4
Nc1nc(C2CC2)c(Sc2sc(N)nc2C2CC2)s1,-5
OCC1Cc2ccccc2CN1 (configuration not stated),-7
N#CC1(C#N)[C@H](C(N)=O)[C@H]1c1ccccc1,-6
CCN(CC)C(=O)CSc1nc2c(cc1C#N)CCC2,35
O=C1CC(c2ccc(S(=O)(=O)N3CCCc4ccccc43)cc2)CN1 (configuration not stated),-9
O=C(O)CCCc1nc2ccccc2[nH]1,-18
O=C1CC2CS(=O)(=O)CC2N1c1ccccc1 (configuration not stated),-12
Cn1nnn(-c2ccccc2)c1=O,-8
CC(C)N(Cc1c(O)ccc2c(=O)c(-c3ccccc3)coc12)C(C)C,-31

Next section, starting with the last 2 of the part before.
Molecule,Mtb MbtI inh
Cn1nnn(-c2ccccc2)c1=O,-8
CC(C)N(Cc1c(O)ccc2c(=O)c(-c3ccccc3)coc12)C(C)C,-31
Cc1ccc2c(c1)C(c1ccc(F)cc1)N(C(=O)COc1ccccc1)CC(=O)N2 (configuration not stated),1
O=C1NCCCC1C1=NC(CO)(CO)CO1 (configuration not stated),-9
CCCCC1(C(=O)OCC)CC(CN2CCOCC2)OC1=O (configuration not stated),-6
COC(=O)NC1c2ccccc2Oc2ccccc21,-1
COc1ccccc1Oc1nnnn1-c1ccccc1,-6
Cc1ccc(CNC(=O)CCSCc2cccc(F)c2)cc1,-9
OC1(c2ccc(F)cc2)CCNC1 (configuration not stated),-6
CN(C)c1ncc2c(n1)CC(c1ccc(C(C)(C)C)cc1)CC2=O (configuration not stated),-5
CN(CCO)C(=O)c1cccc2c1-c1ccccc1C2=O,-3
BrCCc1nc(CCBr)n(Cc2ccccc2)n1,31
CC(C)NC(=O)CCCN1C(=O)c2ccccc2C1=O,-8
Cc1ccccc1-c1noc(N)c1C#N,-2
O=C1CCCC2=C1C(c1ccc(Br)cc1)C1=C(N2)c2ccccc2C1=O (configuration not stated),-9
COc1nnnn1-c1ccccc1,-15
N#CC1(c2ccccc2)CCc2c(sc3ncnc(Cl)c23)C1 (configuration not stated),-4
CC(C)Cc1ccc(S(=O)(=O)N2c3ccccc3CC2C)cc1 (configuration not stated),4
COCCN1CCC(OC(C)=O)C(C)C1C (configuration not stated),-2
O=C(Nc1ccccc1)c1cccnc1N1CCOCC1,-10
COC(=O)c1ncn2c1C(=O)OC(COc1ccccc1)C2 (configuration not stated),-15
CC1(C)CC(=O)C2=C(C1)Nc1[nH]c(=O)[nH]c(=O)c1C2c1cccs1 (configuration not stated),6
CCC(Sc1nc2c(c(=O)[nH]1)CCC2)C(=O)NC1CCCCC1 (configuration not stated),4
CCC(=O)Nc1c2c(nn1-c1ccc(C)cc1)CS(=O)C2 (configuration not stated),-7
O=c1nc2c(-c3ccccc3)n[nH]n2c2ccccc12,-12
O=C1COc2ccc(C(=O)c3ccccc3)cc2CN1,-7
CC1(C)CC(c2csc(N)n2)CCO1 (configuration not stated),-2
CCOC(=O)C(CC)n1cnc2sc3c(c2c1=O)CCC3 (configuration not stated),-14
CCc1ccc(C(=O)Nc2ccc(Br)cc2)o1,11
c1ccc(CNCCc2c[nH]c3ccccc23)cc1,-2
O=C(O)c1coc(=O)c(Br)c1,-12
Cc1ccc(C(=O)COC(=O)c2ccc3nc(C)c(C)nc3c2)cc1,-2
CC(=O)Nc1ccc(S(=O)(=O)n2cnc(C)c2)cc1,-10
c1ccc(NCc2ccc3c(c2)OCO3)cc1,-7
CCN1CCN(c2cc(C)c3cc(NC(=O)COc4ccc(Cl)cc4)ccc3n2)CC1,102
O=C(CCc1nc2ccccc2[nH]c1=O)OCc1cccc(Cl)c1,-18
O=C1c2ccccc2C(=O)N1CC1NCCc2ccccc21 (configuration not stated),-6
Cc1cc(C)c(S(=O)(=O)N2CC(C)OC(C)C2)c(C)c1 (configuration not stated),-14
O=C(CO)c1ccc2cc[nH]c2c1,-7
COc1cc2c3c(c1O)-c1c(cccc1OC)CC3N(C)CC2 (configuration not stated),-68
O=C(CCNS(=O)(=O)c1cccc2nsnc12)N1CCc2ccccc21,-11
COC(=O)C1C(=O)Oc2ccc3ccccc3c2C1C(C)(C)C(=O)OC (configuration not stated),-18
CCc1ccc(CNC(=O)c2coc(=O)c3ccccc23)cc1,-12
COc1cc2nn3c(C)cc(=O)[nH]c3c2cc1OC,11
CCN(CC)C(=O)COc1cc(C)ccc1C(C)C,-3
CC(C)CNC(=O)c1cccc(Cn2cc(Cl)cn2)c1,-4
c1ccc2c(NCCCN3CCOCC3)c3c(nc2c1)CCC3,-9
Cn1c(=O)oc2cc(S(=O)(=O)CCC(=O)O)ccc21,0
O=C(CCc1nc2ccccc2[nH]c1=O)OCc1ccc(Br)cc1,-14
CCOC(=O)C(C)n1cnc2sc3c(c2c1=O)CCC3 (configuration not stated),0
CCSc1nc2sc3c(c2c(=O)n1-c1ccccc1)CC(C)(C)OC3,-10
Cc1cccc(C)c1NC(=O)C1CCCN(Cc2ccccc2)C1 (configuration not stated),-3
CCOC(=O)c1sc(C)c2c(=O)[nH]c(-c3ccc(SC)cc3)nc12,64*
OCc1ccc(-c2ccc(Cl)cc2)o1,-7
COc1ccc(C2C3(C#N)C(N)=NC4(OCCO4)C23C#N)cc1OC (configuration not stated),-14
CCCCN1C(=O)C2C(C(=O)Nc3ccc(C(C)C)cc3)C3C=CC2(O3)C1C(=O)NC1CCCCC1 (configuration not stated),3
CCN(CC)CCn1c2ccccc2n2cc(C)nc12,-1
COc1ccc(CNC2CCCC2)cc1O,-16
COc1ccc(C(=O)CC(c2ccccc2)C2C(=O)CCCC2=O)cc1 (configuration not stated),-6
O=C(O)c1ccc(N2C(=O)c3ccccc3C2=O)cc1,5
CC(C)n1c(C(O)c2ccc3c(c2)OCO3)nc2ccccc21 (configuration not stated),1
Cc1cc(C)nc(SC/C(N)=N\O)n1,37

Given as labelled records: part of the list above
CCN(CC)C(=O)COc1cc(C)ccc1C(C)C
  Mtb MbtI inh: -3
CC(C)CNC(=O)c1cccc(Cn2cc(Cl)cn2)c1
  Mtb MbtI inh: -4
c1ccc2c(NCCCN3CCOCC3)c3c(nc2c1)CCC3
  Mtb MbtI inh: -9
Cn1c(=O)oc2cc(S(=O)(=O)CCC(=O)O)ccc21
  Mtb MbtI inh: 0

The listing picks up with the 8 entries that preceded the break.
Molecule,Mtb MbtI inh
COc1ccc(C2C3(C#N)C(N)=NC4(OCCO4)C23C#N)cc1OC (configuration not stated),-14
CCCCN1C(=O)C2C(C(=O)Nc3ccc(C(C)C)cc3)C3C=CC2(O3)C1C(=O)NC1CCCCC1 (configuration not stated),3
CCN(CC)CCn1c2ccccc2n2cc(C)nc12,-1
COc1ccc(CNC2CCCC2)cc1O,-16
COc1ccc(C(=O)CC(c2ccccc2)C2C(=O)CCCC2=O)cc1 (configuration not stated),-6
O=C(O)c1ccc(N2C(=O)c3ccccc3C2=O)cc1,5
CC(C)n1c(C(O)c2ccc3c(c2)OCO3)nc2ccccc21 (configuration not stated),1
Cc1cc(C)nc(SC/C(N)=N\O)n1,37
COc1ccc(N2C(=O)c3ccc(-c4nc5ccccc5c(=O)o4)cc3C2=O)c(OC)c1,-5
Cc1cc2c3c(c1)C1C=CCC1C(C(=O)O)N3CC1CC=CC21 (configuration not stated),-12
O=C1CC(c2ccc(S(=O)(=O)N3CCCC3)cc2)CN1 (configuration not stated),-4
Cc1cccc(NC(=S)N(CCN2CCCCCC2)Cc2cccs2)c1,4
O=C(Nc1nccs1)c1ccc2c(c1)C(=O)N(CC1CCCO1)C2=O (configuration not stated),-11
O=C(OCCN1CCCCC1)c1cccs1,-8
O=C(Cc1cccs1)NC1(C(=O)NC2CCCC2)CCCCC1,-1
O=C(Nc1cccc(-c2nc3ccccc3[nH]2)c1)c1cccc(N2C(=O)CCC2=O)c1,-1
Cc1cccc(NC(=O)c2ccccc2Cl)c1,-5
O=C(O)c1cc(-c2ccccc2)c(N2CCOCC2)s1,-3
CC(O)CC#CCN1CCCC(c2cccnc2)C1 (configuration not stated),-3
CC(C)OC(=O)CCCN1C(=O)c2ccc(N)cc2C1=O,-19
NC(=O)C1CCN(Cc2c(O)ccc3ccccc23)CC1,-28
Cc1ccc(NC(=O)c2c[nH]c(=O)[nH]c2=O)cc1,-12
O=C1CN=C(c2ccccc2)c2oc3ccccc3c2N1,-7
COc1cc(OC)cc(C(=O)n2nc(C)c(-c3ccccc3)c2N)c1,-1
CCOC(=O)N1CCC(NC(=O)CNC(=O)c2cccs2)CC1,-9
O=C(O)C(Cc1ccccc1)N1C(=O)CSC1=S (configuration not stated),2
NC(=O)c1ccccc1NS(=O)(=O)Cc1ccccc1,-73
c1cncc(-c2nnc3n2C2(CCCCC2)Cc2ccccc2-3)c1,-16
CN1CC2(c3ccccc3)CN(C)CC(c3ccccc3)(C1)C2=O,-2
CC(C(=O)N1CCC2(CC1)OCCO2)C1Sc2ccccc2NC1=O (configuration not stated),-4
Cc1ccc(OCCn2c(=O)sc3ccccc32)cc1,-15
OCC1CC=C(Cl)CC1CO (configuration not stated),-10
CCc1nc(NCCO)c(C#N)c2c1CCCC2,-125
O=c1[nH]c(-c2ccc3nsnc3c2)nc2ccccc12,-18
CN(C)c1ccc(CNC2CCCCC2)cc1,-8
CC(C)(C)NC(=O)CSc1nnnn1-c1ccc(O)cc1,10
CC1CC(O)(Cc2ccccc2)C(C)CN1C (configuration not stated),-16
Cn1c(=O)n(C)c2cc(CO)ccc21,-3
COc1ccc(N2C(=O)CCC(C(=O)NCC3CCCO3)C2c2ccc(F)cc2)cc1 (configuration not stated),-14
COC(=O)C(C)Sc1ncnc2c1sc1nc(N3CCOCC3)c3c(c12)CCCC3 (configuration not stated),5
CCNC(=O)C1OC(n2cnc3c(N)ncnc32)C(O)C1O (configuration not stated),0
NC(=O)CSc1ccc(Cl)cc1,-3
O=C(O)c1ccc2c(c1)C(c1ccccc1)OC2=O (configuration not stated),-5
COc1ccc(C(=O)n2c(=O)oc3ccc(Cl)cc32)cc1,-12
O=c1c2ccccc2cnn1Cc1cccc(Br)c1,-14
CC1CCN(C(=O)c2ccc(COc3ccccc3Cl)o2)CC1,0
O=c1c2ccccc2nc2ccc(NCc3cccs3)nn12,-19
CC(CC(=O)O)CC(=O)Nc1ccc(C(=O)O)cc1 (configuration not stated),-3
CCOc1ccc(-n2cnnn2)cc1S(=O)(=O)NCc1ccccc1,-9
COc1ccc(S(=O)(=O)N2CCc3ccccc3C2C(=O)O)cc1 (configuration not stated),2
COc1ccc(NC(=O)C(NC(=O)Cc2cccs2)c2ccccc2)cc1 (configuration not stated),-9
CSc1nnc(-c2ccccc2Cl)o1,-4
COC(=O)C1=C(N)Oc2c(c(=O)oc3ccccc23)C12C(=O)N(C)c1ccccc12 (configuration not stated),-3
Cc1ccc(-c2n[nH]c(=O)c3ccccc23)cc1S(N)(=O)=O,-1
O=C(CSCC(O)Cn1c2ccccc2c2ccccc21)Nc1ccccc1 (configuration not stated),35
Oc1ccc(-c2[nH]ncc2-c2ccc(Cl)cc2)c(O)c1,-29
N#CC1=C(N)n2c(nc3ccccc32)NC1c1ccc(F)cc1 (configuration not stated),-3
O=C1OC/C(=C(/O)c2ccccc2)C1=O,15
CCCCC1(C(=O)OCC)CC(CSC(=N)N)OC1=O (configuration not stated),-1
CCOC(=O)c1[nH]nc2c1COc1ccccc1-2,3
O=C(CSc1nnc2n1CCCCC2)Nc1c(Cl)cccc1Cl,-6
CCSc1sc(CC)cc1CCl,-14
COC(=O)C1=C(O)CCN(C)C1,-16
COc1cc(OC)cc(C(=O)NC(C)(C)CO)c1,-2

A portion of the library; the hit share may differ from the screen's.
